CDC25B CDK2 inh: human CDC25B-CDK2/CyclinA binding inhibition. P30305+P24941. HTRF CDC25B-CDK2/CyclinA binding, anti-His/anti-Flag; stronger effect = higher value. z-score (test concentration not listed). hit rate 0.72% among 94,000;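 note: score is relative to mean and SD of negative controls; strong numbers were not always called active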
TAR Tat displ: HIV-1 TAR-Tat binding disruption; HIV-1 TAR RNA, Tat peptide displacement FRET; stronger effect = higher value; z-score (concentration not given with the values); hit rate 0.6% among 100,000; AID 1259389;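 note: score is relative to mean and SD of negative controls; some compounds called inactive have numbers as strong as hits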
An asterisk follows results filed as active; x = no result given.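 Rule for the calls: active = z-score from 3 up in half or more of its runs; inactive = the rest.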

SMILES | CDC25B CDK2 inh | TAR Tat displ
c1ccc(CCCNCc2nnc(-c3ccccc3)o2)cc1 | -2.4 | 0.76
O=C(Nc1ccc(Cl)cc1)c1cc2ccccc2c(=O)o1 | -0.8 | x
CCCc1c(OCCCCc2nn[nH]n2)ccc(C(C)=O)c1O | x | 0.62
Cc1ccc(-c2nc(N)n(C(=O)c3ccco3)n2)cc1C | 0.09 | -0.31
CCCN1CCN(C(=O)c2oc3ccccc3c2NC(=O)C2CC2)CC1 | x | 0.73
CCOC(=O)c1ccc(-n2sc3c(c2=S)-c2cc(OC)ccc2NC3(C)C)cc1 | -1.41 | 0.14
COc1ccc(C2C(=O)N(C3CCCCC3)CC(=O)N2CCC2=CCCCC2)cc1OC (configuration not stated) | 0.53 | x
Fc1ccc(-c2nnc3ccc(NCc4cccc(Cl)c4)nn23)cc1 | -4.43 | x
COc1ccc(-c2noc(COc3ccc(Cl)cc3C)n2)cc1OC | -4.07 | 1.32
O=S(=O)(c1ccccc1)N1CCC2(CC1)OCCO2 | -1.81 | x
O=C(NC1CC1)c1n[nH]c(=O)c2ccccc12 | -1.44 | -0.47
O=C(O)C(=O)/C=C(\O)c1ccccc1 | -0.27 | x
Cc1cc(=O)n(C(C)C(=O)N2CCN(c3ccccc3)CC2)c2c1c(C)nn2-c1ccccc1 (configuration not stated) | x | -0.09
Cc1cc(C)cc(NC(=O)CSCc2cc(=O)n3nc(CC(C)C)sc3n2)c1 | x | -1.27
Cn1c(=O)oc2cc(S(=O)(=O)N3CCN(C4CCCCC4)CC3)ccc21 | -0.49 | x
Cn1c(=O)c(-c2c(Cl)cccc2Cl)cc2cnc(Nc3ccc(N4CCOCC4)cc3)nc21 | -1.05 | x
CCOC(=O)c1c(C)c(C(=O)NCc2cccs2)c(C)n1CC | -1.79 | x
COc1ccc(-c2nc(CSc3nnc(C)n4c3cc3oc(C)cc34)c(C)o2)cc1OC | x | -0.83
CC(C)(C)c1cc2nc(C(F)(F)F)cc(NNC(=O)Nc3ccc(OC(F)(F)F)cc3)n2n1 | -1.13 | x
O=C(c1cnc(N2CCOCC2)nc1)N1CCCCC1 | x | 1.03
O=C(Nc1nnc(SCc2ccccc2)s1)c1cc2ccccc2c(=O)o1 | 1.99 | 1.11
Cc1noc2ncnc(N(Cc3ccco3)CC3CCCO3)c12 (configuration not stated) | x | 1.2
CCCNC(=O)OCN1C(=O)c2ccc(N)cc2C1=O | -1.93 | x
CCOC(=O)C1=C(C)NC2=C(C(=O)c3ccccc32)C1c1ccc(O)cc1 (configuration not stated) | -0.16 | -2.01
COc1cc(C2CC(=O)Nc3cc4c(cc32)OCO4)c(Br)c(OC)c1OC (configuration not stated) | -1.87 | x
COC(C)(C)C12CC(O)(C(C)C)ON1C1CCCCC1N2O (configuration not stated) | -2.46 | x
Cc1cc(C)cc(Oc2coc3cc(OC(C)C(=O)OCC(C)C)ccc3c2=O)c1 (configuration not stated) | -1.41 | -0.01
Cc1ccc(CSc2nnc([C@@H](N)C(C)C)o2)cc1 | 0.98 | 1.08
CCSC1=C(C#N)C(=O)NC(C)S1 (configuration not stated) | 1.11 | -0.95
CC1CC(C)CN(S(=O)(=O)c2ccc3c(c2)NC(=O)C(C)S3)C1 (configuration not stated) | x | 4.02
CCOC(=O)c1nc(COc2ccccc2Cl)[nH]c(=O)c1C | -1.22 | x
O=C(NCc1ccccn1)C(=O)c1cn(CC(=O)N2CCOCC2)c2ccccc12 | x | 2.25
CC(=O)NC1=NN(C(C)=O)C(C)(c2ccccn2)S1 (configuration not stated) | 0.29 | x
O=C1O[B-](c2ccccc2)(c2ccccc2)[n+]2ccccc21 | 1.48 | x
Cc1ccc(-c2ccc(=O)[nH]n2)cc1S(=O)(=O)N1CCCc2ccccc21 | -1.21 | 1.7
O=C(CSc1nnc2c3c4c(sc3ncn12)CCCC4)NCc1ccccc1Br | -2.42 | -1.1
Cc1cc2n(n1)C(c1ccccc1F)Nc1c(C)cccc1-2 (configuration not stated) | 0.64 | 0.91
CC(C)Cn1cc(NC(=O)NCCCN2CCC(C)CC2)c2ccccc2c1=O | x | -1.36
N#CC1=C(SCC(=O)Nc2ccc(Br)cc2)NC(=O)CC1c1ccco1 (configuration not stated) | -0.24 | 0.33
Cc1ccc(/C=C/c2nn3c(-c4ccoc4C)nnc3s2)cc1 | -1.26 | 0.92
CSc1c(-c2cccs2)c(N)nn1S(=O)(=O)c1ccccc1 | 0.74 | x
CCCCNc1cc(C)nc2nc(-c3cccc(C)c3)nn12 | 1.08 | 0.8
O=C(CCNC(=O)Cn1cnc2sc3c(c2c1=O)CCCC3)NCc1ccccn1 | 0.9 | x
CN(C)c1ccc(CNC(=O)c2cnc3sc(N4CCCC4)nn3c2=O)cc1 | x | 1.31
COc1ccc(-c2cc(N)n(S(=O)(=O)c3ccc(F)cc3)n2)cc1 | -0.41 | -0.71
O=[N+]([O-])c1ccc(-c2ccc(/C=N/NC(=S)NCC3CCCO3)o2)cc1 (configuration not stated) | -1.54 | x
O=C(CCc1nnc2ccc(N3CCOCC3)nn12)NC1CCCC1 | x | 0.23
Cn1c(=O)c2c(-c3ccccc3)n(-c3ccccn3)cc2n(C)c1=O | -1.73 | 1.62
Cc1cc(=O)n2c(n1)NC(=NCc1ccccc1)NC2c1ccccc1 (configuration not stated) | -0.09 | 0.96
CC1=C(c2ccc(C(C)C)cc2)S(=O)(=O)NC1=NC(C)C | -5.89 | -3.13
O=P(CNc1ccccn1)(c1ccccc1)c1ccccc1 | -0.41 | x
c1ccc2oc(NC3=NCN(Cc4ccc5c(c4)OCO5)CN3)nc2c1 | 1.54 | 0.59
CCC(=O)N1N=C(c2ccc(NS(C)(=O)=O)cc2)CC1c1ccc(F)cc1 (configuration not stated) | -2.24 | x
Cc1ccc(-c2noc(CSc3nnc(-c4ccccc4)n3C)n2)cc1 | -1.63 | -0.26
O=S(=O)(c1ccc(-c2ccccc2)cc1)N1CCSC1c1ccccc1 (configuration not stated) | 0.03 | 0.17
Cn1c(=O)c(=O)n(C)c2cc(S(=O)(=O)N3CCN(c4ccccc4F)CC3)ccc21 | -0.32 | -0.62
CCCN=C1NS(=O)(=O)C(c2ccccc2)=C1C | -0.7 | -2.35
CN1C(=O)Cc2cc(S(=O)(=O)CCC(=O)N3CCN(Cc4ccc5c(c4)OCO5)CC3)ccc21 | x | -0.66
COc1ccc(Cn2cc(S(=O)(=O)c3ccc(OC)cc3)c(=O)c3cc(OC)c(OC)cc32)cc1 | -0.24 | 1.91
O=C(NCc1ccc2c(c1)OCO2)c1ccc(NC2=NC3CS(=O)(=O)CC3S2)cc1 (configuration not stated) | -1.35 | x

(list continues)
SMILES | CDC25B CDK2 inh | TAR Tat displ
COC(=O)c1cccc([N+](=O)[O-])c1C(=O)OC | -1.57 | x
C=CCNC(=O)c1sc(=S)n2c1[nH]c(=O)c1ccccc12 | x | 2.17
CC(C)(C)c1csc(=S)n1CCc1ccccn1 | -0.96 | x
COCCCNC(=O)CCC(=O)N1CC2CCCN2c2ccccc21 (configuration not stated) | x | -3.39
CCc1cccc(NC2=NS(=O)(=O)C(c3ccc(F)cc3)=C2C)c1 | x | 0.79
COC(=O)COC(=O)c1ccc(Oc2nc(OC)nc(N(C)C)n2)cc1 | -1.05 | 1.06
CCOC(=O)CSc1nc2c(c(=O)n1CC)C1(CCCCC1)Cc1ccccc1-2 | -0.06 | 0
CC(C)(C)SCCNS(=O)(=O)c1ccc(C#N)cc1 | -1.68 | x
CCOC(=O)Oc1ccc2c(=O)c(Oc3cc(C)cc(C)c3C)coc2c1 | -2.07 | -0.22
CCOc1ccc(/C(C)=N/NC(=O)c2cc(-c3ccc4ccccc4c3)n[nH]2)cc1 | -1.92 | x
C=CCCOc1ccccc1C(N)=O | -1.33 | x
COc1ccc(C(=O)CSc2n[nH]c(=O)n2C2Cc3ccccc3C2)cc1 | -2.39 | x
O=C(Cn1c(=O)oc2ccccc21)N1CCCCC1 | -0.37 | -2.45
Cc1cc(C)c(C#N)c(Nc2ccc(Br)cc2)n1 | -1.96 | 1.49
CCC(C)NC(=O)C(C)n1nc(C)c2sc3ccccc3c2c1=O (configuration not stated) | -1.82 | -0.55
COC(=O)c1sccc1N=CC1=C(O)CC(c2cccs2)CC1=O (configuration not stated) | -2.2 | x
CC(=O)N1c2ccc(S(=O)(=O)N3CCCC3)cc2CC1C(=O)NCc1ccco1 (configuration not stated) | x | 1.29
COc1ccc(S(=O)(=O)N[C@@H](CC(C)C)C(=O)O)cc1 | -0.83 | 1.11
O=C(Cn1c(=O)oc2ccccc21)N1CCN(c2ccccc2)CC1 | x | 0.24
CCc1ccc(C2C3=C(Nc4c2c(=O)[nH]c(=O)n4C)c2ccccc2C3=O)cc1 (configuration not stated) | -3.35 | 0.78
O=C(c1ccccc1)c1ccc2nc(Cl)c3nncn3c2c1 | -0.27 | 0.87
CC(C)(C)OC(=O)/C(C#N)=C/c1cccs1 | -2.21 | x
CCOc1ccc(C2c3c(oc4ccccc4c3=O)C(=O)N2c2nccs2)cc1OCC (configuration not stated) | -0.59 | 0.71
CCOc1ccc(-c2noc(CSc3nnc(C)n3-c3ccc(C)cc3)n2)cc1 | -0.75 | 1.89
O=S(=O)(c1ccccc1)c1nnn2c1nc(NCc1cccs1)c1sccc12 | x | -0.24
O=C(O)CCSc1nnc(-c2ccccc2)o1 | -0.51 | -0.53
CC1CCC(N2C(=O)c3cc4occc4n3CC2(C)C(=O)NC2CCCCC2)CC1 (configuration not stated) | x | 2.21
Cc1nn(S(=O)(=O)c2cccs2)c(C)c1S(=O)(=O)N1CCOCC1 | x | 1.19
CSCCC(NC(=O)c1cncc(Br)c1)C(=O)O (configuration not stated) | -2.57 | x
O=C(Nc1c(C(=O)N2CCN(C(=O)c3ccco3)CC2)oc2ccccc12)c1ccccc1 | x | 0.72
CCCOC(=O)C1C2C=CC3(CN(Cc4ccc(C)cc4)C(=O)C13)O2 (configuration not stated) | 0.02 | 1.02
COC(=O)c1ccc(CN2C(=O)C(C)=C(c3ccc(C)cc3)S2(=O)=O)cc1 | -0.18 | 1.36
CC(C)c1onc(C(=O)NCc2ccccn2)c1[N+](=O)[O-] | -1.54 | -0.48
Cc1nc2cc(S(=O)(=O)N3CCC(C(=O)NC(C)(C)C)CC3)ccc2n1C1CCCC1 | 0.02 | -0.92
C/C=C/c1ccc(OCCSc2nc3ccccc3[nH]2)c(OC)c1 | 0.03 | 1.15
Cc1cc2n(n1)CCC(=O)N2C(C)C(=O)NCCCN1CCC(N2CCCCC2)CC1 (configuration not stated) | x | -0.23
O=C(CSCc1cc(=O)n2nc(C3CC3)sc2n1)Nc1ccc(Cl)cc1 | x | 0.77
CCOc1ccc(Cc2c(Cl)nc(SC)nc2N(C)C)cc1 | -0.06 | 1.17
O=c1c(NCc2ccc3c(c2)OCO3)c(-c2ccccc2)c1=O | x | 0.41
O=S(=O)(Nc1ccc(F)cc1Cl)c1ccc2nc(-c3ccccc3)[nH]c2c1 | 0.02 | x
COc1cccc(C2CC(=O)N3CN(Cc4ccccc4)CSC3=C2C#N)c1 (configuration not stated) | 5.25* | -0.29
Cc1ccc(CN(C(=O)c2oc3cc(C)c(C)cc3c2C)C2CCS(=O)(=O)C2)o1 (configuration not stated) | -1.61 | 0.73
Cc1cc(C)c2nc(C)cc(Nc3ccc(N(C)C)cc3)c2c1 | -2.83 | 3.65
COC(=O)c1c(C)oc2ccc(OCc3ccc(C)cc3)cc12 | -1.21 | 2.68
O=C(CN1C(=O)CC(c2ccco2)Sc2ccccc21)Nc1ccc(Br)cc1 (configuration not stated) | -1.67 | x
CCn1c(C2CC(=O)N(Cc3cccs3)C2)nc2ccccc21 (configuration not stated) | 0.01 | -0.48
CCOc1ccc(-c2nnc3ccc(SC(C)C(=O)OC)nn23)cc1 (configuration not stated) | -1.43 | x
Cc1cc(-c2ccc(S(=O)(=O)N3CCN(c4cc(Cl)ccc4C)CC3)s2)n[nH]1 | x | 1.46
COC(=O)c1cc(S(=O)(=O)Nc2ccc(OC)c(Cl)c2)cn1C | -1.39 | 1.36
Cc1ccn2c(-c3csc(Nc4ccc(S(=O)(=O)Nc5cc(C)on5)cc4)n3)c(C)nc2c1 | -1.15 | 2.24
O=S(=O)(NC1CCc2ccccc21)c1ccc(-n2cnnn2)cc1 (configuration not stated) | 1.22 | -0.21
CCCc1nc2nc(C)c(NS(=O)(=O)c3ccc4c(c3)CCCC4)c(=O)n2[nH]1 | 0.06 | 0.91
